# TRPV1 potentiator = human TRPV1 potentiation; potentiation, % at 8.33 µM; TRPV1-expressing cells, Fluo-8 calcium influx, capsaicin EC20 potentiation; host cell line not named in the record; control for the full effect not named in the record; 0.02% of 320,000 active; Q8NER1; active means potentiation above 80%; inconclusive means 30% to 80%; inactive means below 30%; also: 0% is about no effect
#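 Fluo-8 calcium influx in TRPV1-expressing cells, kinetic read (ex 480/em 520 nm). Compound added and read 3 min for agonist activity, followed by capsaicin at EC20 final and 2 min further read for enhancement.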
# Sfp inh = inhibitors of Bacillus subtilis Sfp phosphopantetheinyl transferase; Biochemical Sfp PPTase activity, qHTS; 3.5% of 310,000 active; AID 1490; Q9F4F7; Potency, µM, for inactives: max response, negative = inhibition, most hits filed as inhibitors; active = well fitted inhibition curve with a large enough effect; inconclusive = small, poorly fitted or top-dose-only effect, or another doubt; inactive = no such curve, though single readings can be large or run the other way;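 also: the enzyme is Sfp with the accession as filed and its product quenches rhodamine fluorescence; potency is read from the fitted curve at half-maximal effect; 0% = enzyme reaction without inhibitor and -100% = no enzyme wells; top concentration of the series not given in the record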
#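 Buffer: 50 mM Hepes-Na pH 7.6, 10 mM MgCl2, 0.01% Nonidet P-40, 0.01% BSA. Enzyme 15 nM, pre-exposed to compound 15 min; substrates then added and fluorescence change tracked over 30 min.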
# PINK1 expr mod = changes PINK1 expression. Potency, µM (highest dose often 76.6 µM), inactives show top-dose activation (PINK1 increase), actives largely listed as activators. PINK1 immunofluorescence, high-content cytometry, 24 h. 0.2% of 410,000 active; active = well fitted activation curve with a large enough effect; inconclusive = small, poorly fitted or top-dose-only effect; inactive = flat fitted curve, though single readings scatter; cell line not stated here;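 also: potency is read from the fitted curve at half-maximal effect; % of control where 0% means no effect; nearly all actives have a fitted effect of over 65% in size; a mitochondrial uncoupler was the plate control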
#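 A stable cell line was treated with compounds at 5 concentrations for 24 hours, with CCCP as control. PINK1 levels and mitochondrial localization were measured by immunofluorescence with mitochondrial, cell and nuclear markers after fixation, read by laser-scanning cytometry.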
# TRPML1 blocker = inhibitors of human TRPML1 channel; activity change, negative = inhibition, % (test concentration not listed); Q9GZU1; 0.02% of 390,000 active; TRPML1-inducible cells, Ca2+ dye fluorescence, FDSS; hits give low values; inhibition of EC80 agonist-evoked calcium signal; in the data active means activity change below about -50%; inconclusive means about -30% to -50%; inactive means above about -30%;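 also: stimulus is agonist 54-4 at its EC80 concentration; % is scaled to controls: 0 for no effect and ±100 for the full control effect; compound concentration not given in the record; the text of the record puts the active cut at -80%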
# Target sequence (Q9GZU1 whole entry, looked up): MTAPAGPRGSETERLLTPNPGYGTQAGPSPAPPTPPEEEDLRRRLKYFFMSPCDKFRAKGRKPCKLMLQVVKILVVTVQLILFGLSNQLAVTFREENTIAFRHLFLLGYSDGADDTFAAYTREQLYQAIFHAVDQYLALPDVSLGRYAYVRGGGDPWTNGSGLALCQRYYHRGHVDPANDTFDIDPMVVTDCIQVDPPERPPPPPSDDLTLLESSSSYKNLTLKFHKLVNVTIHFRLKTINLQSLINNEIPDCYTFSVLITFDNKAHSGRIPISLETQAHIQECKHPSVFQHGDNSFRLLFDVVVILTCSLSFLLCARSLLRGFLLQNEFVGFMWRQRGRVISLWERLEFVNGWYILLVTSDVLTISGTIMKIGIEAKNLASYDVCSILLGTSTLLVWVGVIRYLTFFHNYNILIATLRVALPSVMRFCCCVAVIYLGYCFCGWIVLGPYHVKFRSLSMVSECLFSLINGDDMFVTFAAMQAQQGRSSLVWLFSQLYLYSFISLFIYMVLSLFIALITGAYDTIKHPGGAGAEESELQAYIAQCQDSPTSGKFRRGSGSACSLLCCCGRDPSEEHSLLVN
#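 Tet-induced TRPML1-DL cells loaded with Ca8 no-wash calcium dye were read kinetically on FDSS. Compound addition was followed by EC80 agonist 54-4 (4 uM final); inhibition was read over 110 s.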
# TRPML1 ag = human mucolipin-1 channel agonism | TRPML1-expressing cells, Ca2+ dye fluorescence, FDSS; host cell line not named in the record; reference of the full effect not given here | 0.12% of 410,000 active | AID 624414 | activation, % (test concentration not listed); in the data active = activation above about 50%; inconclusive = about 30% to 50%; inactive = below about 30%; also: 0% is about no effect; the text of the record puts the active cut at 80%
#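 Agonist activity was taken from a 110 s kinetic Ca2+ dye read on the FDSS after pinning compounds onto TRPML1-DL cells. The cells were seeded at 1,500/well with Tet inducer, incubated about 16 h, then dye-loaded at room temperature.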
# Menin-MLL FL inh = menin-MLL binding inhibition, fluorescein peptide; AID 1766; FP activity change, % at 61.4 µM; 290,000 tested, under 10 active; Fluorescence polarization, fluorescein-MLL peptide displacement from menin; inconclusive = falling polarisation curve, or a change in total fluorescence; inactive = total fluorescence flat and polarisation flat or rising; no compound was filed as active; the % refers to the polarisation; negative = inhibition;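 also: % of control where 0% means no effect; inhibitors lower the polarisation; unlabelled MLL peptide was the positive control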
# ClpP mod = qHTS Assay for Activators of ClpP; ATP-dependent Clp protease proteolytic subunit (Bacillus subtilis (strain 168)), P80244; 1.9% of 340,000 active; Potency, µM (doses to about 57.5 µM), for inactives: top-dose activity change, negative = active; purified B. subtilis ClpP, FRET peptide cleavage, 20 min; AID 651965, 2013; active = well fitted falling curve with a large enough effect; inconclusive = small, poorly fitted or top-dose-only effect; inactive = no such curve, though single readings can be large or run the other way; also: potency is read from the fitted curve at half-maximal effect; the source files actives as falling curves though it sought activators and does not explain the sign; nearly all actives have a fitted effect of over 65% in size; many hits overshoot -100%
# Target sequence (P80244 whole entry, looked up): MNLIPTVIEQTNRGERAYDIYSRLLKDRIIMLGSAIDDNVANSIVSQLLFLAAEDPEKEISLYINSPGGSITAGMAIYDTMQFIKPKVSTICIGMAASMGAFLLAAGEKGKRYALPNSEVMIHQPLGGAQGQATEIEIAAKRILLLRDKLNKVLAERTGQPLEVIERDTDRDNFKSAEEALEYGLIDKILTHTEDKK
#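 Purified B. subtilis ClpP, 10 microg/mL final in Tris/HCl pH8 with KCl, BSA, glycerol and Tween-20, cleaved an Abz/nitrotyrosine-quenched decapeptide. Fluorescence (ex 320, em 430) was read at 0 and 20 min at room temperature. Delta was normalized to 5.8 microM ADEP and DMSO/no-enzyme controls.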
# Starred values were filed as active, the others as inactive; ? = inconclusive; nt = not tested or not shown; & = joins results of further samples; [ ] = remark or other dose.
# The line under a structure holds: TRPML1 blocker	Sfp inh	ClpP mod	PINK1 expr mod	TRPML1 ag	TRPV1 potentiator	Menin-MLL FL inh
> CCn1c(=NC(=O)c2cccc(N3C(=O)CCC3=O)c2)sc2c(OC)ccc(OC)c21
 : -5	4%	0.3%	1.1%	-0.1	-5	4.1
> CCOc1ccccc1N(CC(=O)Nc1cccc2ccccc12)S(C)(=O)=O
 : 12	3%	-0.6%	0.3%	0.4	-4	2.6
> CCOC(=O)c1ccc(NS(=O)(=O)c2ccc(Cl)nc2)cc1
 : nt	11%	nt	nt	nt	-4	9.5
> COc1ccccc1-c1cccc([C@@H]2C[C@H]3[C@@H](CN2)CON3C)c1
 : 21	nt	-0.9%	-1.1%	1.0	nt	nt
> O=C(Nc1nc(-c2ccc(Cl)cc2)cs1)C1=COCCO1
 : -9	nt	-25%	3.8%	-0.2	-5	nt
> C=C1C(=O)OC2C[C@@]3(C)CCCC(C)C3=CC12 (stereo not given in full)
 : nt	3%	nt	0.7%	nt	nt	-2.7
> Cc1ccc(N2C(=O)CC(n3ccnc3)C2=O)cc1C (stereo not given)
 : 11	9%	0.8%	-0.5%	-1.1	4	-1.1
> CC(C)c1nn2c(=O)cc(COc3cccc(NC(=O)c4ccco4)c3)nc2s1
 : -21	11%	-5.4%	14%	-0.5	-2	nt
> O=C(NC(=S)NCc1ccccc1)c1ccc(Br)cc1
 : -11	nt	nt	1.4%	1.3	nt	nt
> O=C(CCC(=O)N1CCSc2ccccc21)NCc1ccccc1
 : -8	2%	-1.1%	1.1%	0.0	7	-1.4
> COc1ccc(CNC(=O)C(c2ccncc2)N(C(=O)Cc2cccs2)c2cccnc2)cc1 (stereo not given)
 : -22	15%	nt	6.8%	0.7	-12	-0.1
> Cc1ccccc1Nc1nc(-c2cccnc2)nc2ccccc12
 : 1	16%	-0.8%	3.9%	0.8	-18	0.5
> COc1ccc2nc(/N=C(\N)NC(=O)N3c4ccccc4Sc4ccccc43)nc(C)c2c1
 : 6	-9%	?	11%	-1.3	-11	3.9
> COc1ccccc1CN1COc2ccc3c(C)cc(=O)oc3c2C1
 : 8	nt	3.9%	0.9%	0.8	nt	nt
> CCOC(=O)c1c(C)[nH]c(C)c1C(=O)COC(=O)c1cccnc1SC
 : -2	nt	0.2%	2.4%	2.3	6	nt
> CCOC(=O)c1scc(-c2ccccc2)c1S(=O)(=O)N1CCN(c2ccc(Cl)cc2)CC1
 : 4	nt	2.3%	3.9%	-0.3	nt	nt
> CCSc1nnc(NC(=O)CSc2nc3c(c(=O)n2C)SC(C)C3)s1 (stereo not given)
 : 11	-3%	0.4%	nt	2.2	12	1.5
> Cc1nn(-c2ccccc2)c2c1C1(C(=O)N3c4c(cccc41)C(C)CC3(C)C)C(C#N)=C(N)O2 (stereo not given)
 : 36	-8%	-1.5%	2.3%[38.3 µM]	3.8	24	0.4
> CCCS(=O)(=O)c1c(S(=O)(=O)CCC)c2cc(CC)ccn2c1C(=O)OC
 : -1	2%	?	-0.9%	-0.8	12	-0.5
> COc1ccc(S(=O)(=O)N2CCOCC2)cc1NC(=O)CN1C(=O)NC2(CCCC2)C1=O
 : -9	nt	-0.2%	0.4%	1.4	-9	nt
> CC(C)COc1cccc(C(=O)Nc2ccc(S(=O)(=O)N3CCOCC3)cc2)c1
 : 0	27%	-3.7%	nt	2.9	-1	0.9
> CC(=O)c1cccc(OCc2cc(C(=O)NC3CCN(Cc4ccccc4)CC3)no2)c1
 : 31	-5%	1.3%	-0.2%	-0.4	15	nt
> O=[N+]([O-])c1ccc2oc(C3CCCCC3)nc2c1
 : 7	5%	-0.9%	-0.3%	-0.9	-6	-1.8
> CN(Cc1ccc(Cl)s1)C(=O)CCl
 : -14	3%	-1.7%	-2.1%	-0.8	-13	-1.4
> COc1cccc(NC(=O)[C@H](NC(=O)[C@@H]2Cc3ccccc3CN2)c2ccccc2)c1
 : -7	2%	-3.9%	0.6%	-0.6	15	nt
> Cc1cccn2c(=O)c3cc(C(=O)NCC(C)C)sc3nc12
 : -8&9	16%	-8.7%&-0.7%	0.8%&1.6%	-0.9&1.8	-4	-0.1
> COC(=O)c1ccc(Oc2nc3c(c(=O)n(C)c(=O)n3C)n2CCC(C)C)cc1
 : -6	5%	26%	9.5%	0.5	-18	3.0
> Cc1ccc(C(=O)N2CCN(C34CC5CC(CC(C5)C3)C4)CC2)o1
 : -7	-2%	-0.8%	0.1%	0.0	-27	-7.6
> Cc1cc(C)c(NC(=O)CSc2nnnn2-c2cccnc2)c(C)c1
 : 9	3%	nt	2.3%	0.1	16	-0.5
> Cc1cccc2c(=O)cc(C(F)(F)F)[nH]c12
 : -2	8%	nt	?	0.3	6	-1.6
> CC1Cc2ccccc2N1C(=O)CSc1nncs1 (stereo not given)
 : 28	nt	1.2%	-0.9%	2.2	20	nt
> O=C(CCN1C(=O)C2C3C=CC(C3)C2C1=O)Oc1ccc2ccccc2c1 (stereo not given)
 : 6	22%	3.8%	2.1%	0.0	-21	-9.0
> O=C(Cn1c(=O)n(-c2ccccc2)c(=O)c2c3c(sc21)CCC3)c1ccc(Br)cc1
 : 8	nt	-5.2%	3.8%	1.3	nt	nt
> CC(=O)c1ccc(N2CCN(c3ccc4cc(S(=O)(=O)N5CCC(C)CC5)ccc4n3)CC2)cc1
 : -8&-26	6%	-13%&-4.1%	4.6%&1.7%	-0.5&3.2	-4	-2.1
> CSCC[C@H](CO)NC(=O)[C@H]1O[C@@H](n2cnc3c(N)ncnc32)[C@H](O)[C@@H]1O
 : 5	nt	0.9%	5.8%	-0.4	nt	nt
> CC1CC(NC(=O)C2(C)CC2(Cl)Cl)CC(C)(C)C1 (stereo not given)
 : 6	7%	0.4%	-0.8%[38.3 µM]	0.7	-23	4.1
> COCCn1c(=NC(=O)c2ccco2)sc2cc(C(=O)OC)ccc21
 : -13	12%	-6.6%	14%	1.3	-15	9.5
> CC(=O)Nc1ccc(NS(=O)(=O)c2ccc(C)cc2)cc1[N+](=O)[O-]
 : 13	7%	nt	1.5%	-0.2	10	5.5
> Cc1csc(NC(=O)C2CCN(C(=O)c3ccccc3C)CC2)n1
 : 5	6%	2.3%	0.9%	2.4	-11	-1.0
> CC1=CCC2C(=O)N(c3ccc(C)cc3)C(=O)C2C1 (stereo not given)
 : 0	11%	0.6%	2.3%[38.3 µM]	-0.2	-5	-0.2
> CC(NC(=O)c1cccs1)c1ccc(Br)cc1 (stereo not given)
 : 1	nt	0.7%	2.6%	0.2	nt	nt
> CCOC(=O)C(=O)Nc1nnc(COc2ccccc2)s1
 : 13	15%	1.0%	0.2%	-0.6	0	-3.9
> N/C(=N\OC(=O)COc1ccc(Br)cc1)c1cccnc1
 : -1	-16%	-0.5%	20%	0.8	9	-0.1
> COc1ccc(C2c3ccc(O)cc3Oc3ncn4nc(-c5cccnc5)nc4c32)cc1OC (stereo not given)
 : 3	-3%	nt	6.0%	-0.1	2	6.0
> CCO[C@H]1OC(C(=O)N2CCOCC2)=C[C@@H](c2ccc3c(c2)OCO3)[C@@H]1CCCO
 : -1	19%	2.0%	0.7%	0.2	-5	-2.0
> Cc1nn(C)c(=S)[nH]c1=S
 : -5	nt	nt	0.3%	-0.3	nt	nt
> COc1ccc(NC(=O)CSCC(=O)Nc2ccccc2N2CCCC2)cc1
 : -25	nt	-2.4%	-0.3%	0.1	22	nt
> CC(C)CNC(=O)C(=O)NN=C1CCCCCC1
 : -7	10%	1.2%	1.4%	-0.3	14	-2.0
> CN=C1SC(CC(=O)Nc2ccc(F)cc2F)C(=O)N1/N=C/c1ccc(OC(F)F)c(OC)c1 (stereo not given)
 : -8	-17%	nt	1.7%	-0.7	8	-3.8
> COCC(=O)N1CCC[C@@]2(CCN(Cc3ccc(C#N)cc3)C2)C1
 : nt	11%	nt	1.1%	nt	nt	1.0
> O=C(C[C@@H]1C/C=C\CC[C@H](Cc2ccc(F)cc2)C(=O)OC[C@@H]2CCCN2C1=O)N[C@H](CO)Cc1ccccc1
 : -16	nt	1.0%	0.0%	2.5	nt	nt
> COc1ccc(/C=N/n2c(C)nc3sc(C)c(C)c3c2=O)cc1OC
 : 4	-10%	nt	5.4%	0.0	0	3.6
> CC(C)c1ccc(C(=O)NNC(=O)C2CC=CCC2C(=O)O)cc1 (stereo not given)
 : 10	?	-1.7%	-1.0%	0.5	-5	-0.8
> CS(=O)(=O)Nc1cccc(-c2cc(NC=O)c3ncc(-c4ccc(F)cc4)n3c2)c1
 : nt	nt	?	-1.2%	-0.5	nt	nt
> COc1ccccc1NC(=O)C1CCCN1S(=O)(=O)c1ccc(Cl)cc1 (stereo not given)
 : -9	9%	nt	0.0%	-0.2	?	-4.5
> CCOc1ccc(NC(=O)Cn2cc(C(=O)c3ccc(F)cc3)c(=O)c3cc4c(cc32)OCO4)cc1
 : 46	nt	-4.1%	-0.1%	-0.1	nt	nt
> Cc1cc(C)n(-c2ccc(C(=O)Nc3ccc(C)c(S(=O)(=O)N4CCOCC4)c3)cc2)n1
 : 40	22%	nt	2.7%	1.5	8	6.6
> COc1ccc(Nc2cc(C(=O)NCCCN3CCOCC3)c3ccccc3n2)c(OC)c1
 : 0	12%	-0.3%	-0.8%	-0.4	-2	1.3
> CCOc1ccc(C(=S)N2CCCC2)cc1
 : 9	3%	-1.8%	-1.3%	3.6	?	-0.1
> CC1(C)Cc2c(c(N3CCOCC3)nc3snc(NC(=O)c4ccccc4)c23)CO1
 : -1	17%	0.0%	-1.0%	-0.6	-1	1.8
> CCCN(C(=S)Nc1ccccc1)C1CCS(=O)(=O)C1 (stereo not given)
 : 11	5%	-0.5%	-1.9%	0.7	-1	0.7
> O=C(COC(=O)CCSc1ccc(F)cc1)NCc1ccc(F)cc1
 : 2	nt	0.3%	-2.1%	1.5	nt	nt

# From PubChem
